CtBP-E1A inh – qHTS Assay for Inhibitors of the CtBP/E1A Interaction. AlphaScreen GST-E1A/His-CtBP binding, 1536-well; hits give low values; control for the full effect not named in the record. 0.49% of 340,000 active. AID 651724, 2012. activity change, % (test concentration not listed). CtBP / adenovirus E1A interaction (AlphaScreen); in the data active means activity change below about -65%; inconclusive means about -30% to -65%; inactive means above about -30%; further: on the % scale 0 is the no-effect control and ±100 the full control effect; compound concentration not given in the record
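In 5 uL wells, 23 nL compound meets equimolar GST-E1A and His-CtBP (5X stock 125 nM each) for 2 h, 37 °C. Beads (5X, 50 ug/mL) then 1 h, 37 °C, dark.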
TRPML1 inh – qHTS for Inhibitors of the Human Mucolipin Transient Receptor Potential 1 (TRPML1); 0.02% of 390,000 active; TRPML1-inducible cells, Ca2+ dye fluorescence, FDSS; hits give low values; inhibition of EC80 agonist-evoked calcium signal; AID 624415, 2012; Mucolipin-1 (Homo sapiens), Q9GZU1; activity change, negative = inhibition, % (no concentration beside the values); in the data active means activity change below about -50%; inconclusive means about -30% to -50%; inactive means above about -30%;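 further: stimulus is agonist 54-4 at its EC80 concentration; on the % scale 0 is the no-effect control and ±100 the full control effect; compound concentration not given in the record; the text of the record puts the active cut at -80%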
Target sequence (Q9GZU1 whole entry, looked up): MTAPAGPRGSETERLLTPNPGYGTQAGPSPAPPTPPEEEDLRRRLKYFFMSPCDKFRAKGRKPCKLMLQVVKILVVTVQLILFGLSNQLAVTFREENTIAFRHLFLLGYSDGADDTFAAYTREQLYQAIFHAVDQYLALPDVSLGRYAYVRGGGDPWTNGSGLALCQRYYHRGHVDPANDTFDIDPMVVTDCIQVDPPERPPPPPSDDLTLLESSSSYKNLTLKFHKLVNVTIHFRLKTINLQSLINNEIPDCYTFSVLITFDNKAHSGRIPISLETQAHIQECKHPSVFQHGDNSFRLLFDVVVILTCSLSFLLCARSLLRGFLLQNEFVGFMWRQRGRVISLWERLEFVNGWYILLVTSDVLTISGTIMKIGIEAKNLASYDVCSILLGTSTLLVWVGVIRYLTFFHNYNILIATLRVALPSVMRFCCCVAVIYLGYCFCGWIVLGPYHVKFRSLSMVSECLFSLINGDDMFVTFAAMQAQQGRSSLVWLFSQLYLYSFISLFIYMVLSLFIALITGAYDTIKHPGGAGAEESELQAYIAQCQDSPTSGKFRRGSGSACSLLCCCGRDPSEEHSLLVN
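Calcium fluorescence in TRPML1-DL cells induced overnight with Tet: a 110 s read after compound pin addition, then a 110 s antagonist read after challenge with 54-4 at 4 uM final (EC80).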
Six1-Eya2 blk – qHTS Assay for Inhibitors of the Six1/Eya2 Interaction | AlphaScreen GST-Six1/His-Eya2 binding, biochemical; hits give low values; control for the full effect not named in the record | activity change, % (concentration not given with the values) | 0.56% of 360,000 active | Homeobox protein SIX1 (Homo sapiens) + Protein phosphatase EYA2 (Homo sapiens), …; in the data active = activity change below about -65%; inconclusive = about -30% to -65%; inactive = above about -30%; further: on the % scale 0 is the no-effect control and ±100 the full control effect
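Homogeneous AlphaScreen proximity assay pairing GST-Six1 with His-tagged Eya2 (added as 5X mix: 250 nM and 500 nM) in 50 mM Tris pH 8.0, 300 mM NaCl, 1 mM TCEP. Glutathione donor and nickel acceptor beads; 1 h, 37 °C, dark.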
PINK1 modulator – A Quantitative High throughput Screen to Identify Chemical Modulators of PINK1 Expression. PINK1 immunofluorescence, high-content cytometry, 24 h. Potency, µM (top dose mostly 76.6 µM), for inactives: at the highest dose activation (PINK1 increase), hits mostly activators. 0.2% of 410,000 active. AID 624263, 2012; active = well fitted activation curve with a large enough effect; inconclusive = small, poorly fitted or top-dose-only effect; inactive = flat fitted curve, though single readings scatter; cell line not stated here;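 further: potency means the concentration at half of the fitted maximal effect; % of control where 0% means no effect; nearly all actives have a fitted effect of over 65% in size; a mitochondrial uncoupler was the plate control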
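Fluorescence from anti-PINK1 antibody, together with nuclear and cell stains, was scanned on a laser-scanning cytometer. Before staining, stable-line cells were incubated 24 hours with compounds at 5 concentrations; primary antibody 12 h at 10 degrees C.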
TRPML1 ag – qHTS for Agonists of the Human Mucolipin Transient Receptor Potential 1 (TRPML1); TRPML1-expressing cells, Ca2+ dye fluorescence, FDSS; host cell line not named in the record; reference of the full effect not given here; activation, % (no concentration beside the values); Mucolipin-1 (Homo sapiens), Q9GZU1; 0.12% of 410,000 active; AID 624414, 2012; in the data active = activation above about 50%; inconclusive = about 30% to 50%; inactive = below about 30%; further: 0% is about no effect; the text of the record puts the active cut at 80%
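TRPML1-DL cells, Tet-induced overnight (~16 h, 37 degrees C), loaded 45-90 min at room temperature with Ca8 no-wash calcium dye plus quencher. FDSS fluorescence: 10 s baseline, compound pin-transfer, 110 s agonist read, then EC80 54-4 (4uM final) and 110 s antagonist read.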
D2 ag – Beta-Arrestin HTS for Positive Allosteric Modulators of the Human D2 Dopamine Receptor: Agonists. D(2) dopamine receptor (Homo sapiens), P14416. DiscoveRx PathHunter D2 beta-arrestin, luminescence, 90 min; 100% = 57 uM dopamine signal. activation, % (test concentration not listed). 0.084% of 360,000 active. AID 624465, 2012; in the data active = activation above about 40%; inconclusive = about 15% to 40%; inactive = below about 15%; further: compound concentration not given in the record; the text of the record calls up to 30% inactive
Target sequence (P14416 whole entry, looked up): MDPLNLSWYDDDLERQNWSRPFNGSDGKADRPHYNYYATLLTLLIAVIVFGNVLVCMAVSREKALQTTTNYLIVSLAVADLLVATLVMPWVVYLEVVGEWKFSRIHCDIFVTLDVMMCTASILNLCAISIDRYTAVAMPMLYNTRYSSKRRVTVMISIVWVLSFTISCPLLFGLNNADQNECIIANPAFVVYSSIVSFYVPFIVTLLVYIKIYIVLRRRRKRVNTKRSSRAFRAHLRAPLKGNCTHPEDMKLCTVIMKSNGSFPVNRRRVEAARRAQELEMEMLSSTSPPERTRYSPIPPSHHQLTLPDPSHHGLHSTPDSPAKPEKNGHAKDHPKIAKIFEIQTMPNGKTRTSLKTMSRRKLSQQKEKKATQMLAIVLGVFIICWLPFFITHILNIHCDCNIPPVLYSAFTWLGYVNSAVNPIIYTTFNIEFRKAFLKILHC
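Agonist mode: compounds alone added to overnight-plated D2 PathHunter cells for 90 min at 37 C, with 57 uM final dopamine (EC100) defining full response. Beta-arrestin recruitment detected by chemiluminescent reagent, read after 1 h at ambient temperature.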
* marks the source's active call; other numbers are inactive results; ? = inconclusive; . = no result given; & = joins results of further samples; [ ] = remark or other dose.

SMILES | CtBP-E1A inh | TRPML1 inh | Six1-Eya2 blk | PINK1 modulator | TRPML1 ag | D2 ag
FC(F)(F)c1cc(-c2ccccc2)nc2nc(N3CCOCC3)sc12 | . | 9.2 | -4.0 | 18.1% | 0.2 | -1.0
CC(C)OC(=O)c1ccc(N)cc1 | -5.8 | 14.7 | 4.6 | 0.2% | 3.0 | 1.1
CN(C)c1ncnc2c1ncn2[C@H]1CN(Cc2ccncc2)C[C@@H](CO)O1 | 1.4 | . | 1.8 | 2.2% | -0.3 | -7.9
COc1cccc(CNC(=O)C2CCC(CNc3nc(=S)[nH]c4ccccc34)CC2)c1 (centres undefined) | -13.2 | -9.4 | ? | 0.3% | -0.3 | -2.7
Cc1cc(C)nc(NC2=N[C@@H]3CCCC[C@H]3N2C(=O)Nc2cc(Cl)cc(Cl)c2)n1 | 3.2 | . | 2.6 | -0.9% | . | -4.2
Cc1cccc(C)c1NC(=O)COC(=O)c1ccc2c(c1)OCO2 | . | 17.3 | 15.7 | 1.0% | 0.3 | 6.6
C[C@H](CO)N1C[C@H](C)[C@@H](CN(C)CC2CCCCC2)Oc2c(NS(=O)(=O)c3cn(C)cn3)cccc2C1=O | 0.0 | 28.1 | 1.2 | -1.7% | -0.5 | 0.8
COc1ccccc1C(=O)NCCC(=O)N1CCN(c2ccc(C(F)(F)F)cn2)CC1 | -0.9 | -4.9 | -5.8 | -3.8% | 0.3 | -2.1
O=C(Cc1ccccc1)NN=C1CCCC1 | 3.3 | 0.0 | 8.7 | -2.6% | 0.8 | 0.5
O=C(C(Cc1ccccc1)n1cccc1)N1CCN(c2ccccc2)CC1 (centres undefined) | -11.0 | 31.1 | -29.3 | 1.8% | 0.4 | 1.2
Cc1ccc(Cn2c(N/N=C/c3ccncc3)nc3c2c(=O)n(C)c(=O)n3C)cc1 | 1.5 | 22.5 | -10.8 | 8.2% | -0.5 | -1.4
O=C(Cn1cnc2cc([N+](=O)[O-])ccc2c1=O)Nc1ccccc1Cl | ? | 12.7 | -8.6 | 1.0% | -0.1 | 5.9
CCC(=O)N1CCc2cc(S(=O)(=O)NCCC(=O)Nc3ccc(CC)cc3)ccc21 | . | -7.3 | . | 1.3% | 1.2 | .
O=Cc1ccc(C(=O)OCC(=O)NC(=O)Nc2ccccc2F)cc1 | 3.9 | 7.8 | -7.5 | -1.5% | -0.6 | -2.0
O=C(NCC1CCCO1)c1cccc(S(=O)(=O)Nc2ccc(F)cc2)c1 (centres undefined) | -0.5 | -21.7 | -0.2 | 0.0% | 3.6 | 3.3
Cc1cc(S(=O)(=O)N2CCOCC2)ccc1OCC(=O)NCC1CCCO1 (centres undefined) | -5.4 | 11.4 | -12.6 | 1.2% | -0.3 | -20.4
Cc1ccc(S(=O)(=O)N2CCCCC2CCNC(=O)C(=O)NCc2ccccc2C)cc1 (centres undefined) | -9.2 | 29.0 | 3.8 | 1.1% | 1.5 | 1.0
CSc1ccc(CNC(=O)CCn2ccc3cc(S(=O)(=O)N4CCC(C)CC4)ccc32)cc1 | . | 20.2 | . | -2.9% | 1.4 | .
O=C(COC(=O)c1ccccc1C(=O)c1ccccc1)c1ccco1 | 3.5 | 7.0 | 0.8 | 2.9%[38.3 µM] | 0.2 | -2.9
CCOC(=O)C1Nc2c(F)cc(C)cc2C2c3ccccc3CC12 (centres undefined) | -9.1 | 8.1 | -4.9 | 15.9% | 2.0 | -4.7
CSc1ncc(Cl)c(C(=O)NCc2cccnc2)n1 | -5.3 | 10.9 | -19.6 | -0.4% | -0.8 | -5.3
C/C(=N\NC(=O)c1ccc(N(C)C)cc1)c1ccc(C)cc1C | -0.4 | -0.2 | -3.8 | 4.9% | -0.7 | -4.3
Cc1nc(NC(=O)COC(=O)c2ccc(S(=O)(=O)N3CCc4ccccc4C3)cc2)c(Cl)cc1Cl | 4.3 | 18.3 | -1.9 | 10.6% | 0.4 | -2.8
COc1cccc(-c2c(C(=O)O)cc(O)c3ccc(OC)cc23)c1 | 3.9 | 8.6 | -10.3 | -0.7% | 0.2 | 1.1
Cc1ccccc1NC(=O)c1ccc2ccccc2c1 | -8.4 | 4.6 | 9.1 | 6.2% | -0.4 | 3.2
Cc1ccc(-c2noc(CCC(N)=O)n2)cc1 | 4.7 | 35.0 | 8.4 | -3.3% | -1.2 | -3.4
Cc1c(C(=O)Nc2nc(-c3ccc(F)cc3)ns2)oc2ccc(Br)cc12 | . | -29.4 | . | 1.7% | 0.3 | .
COc1ccc(N2C(=O)CCC2=O)c(OC)c1 | 4.4 | -3.7 | 7.7 | 1.4% | -0.3 | 12.3
O=C(NCc1nc2ccccc2[nH]1)c1cccc(S(=O)(=O)N2CCCCC2)c1 | 21.4 | 41.8 | 3.8 | -0.1% | -0.1 | -1.0
O=C(O)CN1C(=O)C2C3C=CC(C2C1=O)C1C(=O)N(CC(=O)O)C(=O)C31 (centres undefined) | -16.3 | -1.6 | -8.9 | -1.6% | -0.3 | -4.3
Cc1cccc(CCNC(=O)c2cc3c(s2)-c2c(C)cccc2OC3)c1 | . | -10.4 | . | 5.6% | 4.0 | .
Cc1nc2n[nH]c(N)c2c2c1COC(C)(C)C2 | -0.1 | 3.9 | 13.7 | 0.5% | -0.4 | 0.7
Cc1cc(C)nc(SCC(=O)N(C)CC(=O)Nc2c(Cl)cccc2Cl)n1 | 2.8 | -10.7 | 0.5 | -3.7% | 0.5 | -3.7
CCCCP(=O)(CCCC)CCP(=O)(c1ccccc1)c1ccccc1 | 12.3 | -10.5 | 4.5 | -0.4% | 0.2 | -4.3
COc1ccc2c(c1)Sc1ccccc1N2 | ? | -3.2 | ? | 7.4% | 0.6 | 11.7
O=C(N/N=C/c1c(O)ccc2ccccc12)c1cccnc1 | -91.6* | 12.5 | -66.8* | 1.9% | 4.8 | -2.6
CS/C(=N\S(=O)(=O)c1cccs1)Nc1ccc(N2CCOCC2)cc1 | 4.1&-6.6 | -5.3&10.2 | 3.9&3.0 | -1.5%[38.3 µM] | -0.3&-0.8 | -4.4&-5.8
COc1ccc(OC)c(S(=O)(=O)CC(=O)c2cc3ccc(OC)cc3oc2=O)c1 | . | -4.7 | -1.8 | 4.6% | -0.3 | -3.8
CCc1nc(SCC(=O)N2CCN(C(=O)c3ccco3)CC2)c2c3c(sc2n1)CCCC3 | -0.4 | -11.8 | -0.1 | -1.4% | -1.1 | -0.5
COc1ccc(CNc2nc3nc(C)cc(C)n3n2)cc1 | 5.4 | -5.1 | -0.1 | 7.5%[38.3 µM] | 0.1 | 0.2
Cc1cc(C(=O)Nc2cccc(/C=C/C(=O)O)c2)c(C)o1 | -3.9 | 14.9 | -1.6 | -1.7%[38.3 µM] | 0.3 | -1.6
CCC(C)C(CO)NCCCn1ccc(NC(=O)OCc2ccccc2)nc1=O (centres undefined) | 0.6 | . | 1.4 | 1.2% | . | -2.0
CC1CCCCC1NS(=O)(=O)c1ccc(-n2cnnn2)cc1 (centres undefined) | 4.7 | -5.8 | 8.5 | 0.1% | -0.1 | 0.0
COc1ccc(C(CNS(=O)(=O)c2ccc(NC(C)=O)c(OC)c2)N2CCCCC2)cc1 (centres undefined) | 5.2 | -2.6 | 2.2 | -0.8% | 0.4 | 0.2
CCCn1c(SCC(=O)NC2CCCCC2)nnc1C1CC1 | 0.1 | -3.9 | 8.0 | -0.3% | 1.0 | -1.3
COCCNC(=O)C1(C)CCCN(C(=O)c2cccc(Cl)c2)C1 (centres undefined) | -6.8 | . | 10.8 | 2.2% | -0.6 | -6.4
CC(=O)N1CCSc2ccc(S(=O)(=O)NCc3ccc(F)cc3)cc21 | 1.0 | 47.5 | -1.0 | 0.4% | 0.1 | 4.1
CCOC(=O)C(CC)Sc1nc2c(cnn2-c2ccc(F)cc2)c(=O)[nH]1 (centres undefined) | 8.5 | 25.5 | -9.8 | -0.4% | 2.3 | -1.3
C=CCC(CC=C)(CNC(=O)C(=O)Nc1ccc(Br)cc1)c1ccc(OC)c(OC)c1 | . | 4.7 | . | 2.2% | 0.0 | .
Cc1nc2cc(-c3ccccc3)nn2c(C)c1CCC(=O)N1CCN(c2ccc(F)cc2)CC1 | . | 1.8 | . | 2.1% | -0.5 | .

Additional results.
SMILES | CtBP-E1A inh | TRPML1 inh | Six1-Eya2 blk | PINK1 modulator | TRPML1 ag | D2 ag
CCOC1=C2[C@@H](CN(S(=O)(=O)c3ccc(C)cc3)[C@H]2c2ccccc2)[C@H]2C(=O)N(c3ccccc3)C(=O)[C@H]2C1 | -7.8 | . | 10.6 | 6.9% | -0.6 | -2.2
O=C(CCS(=O)CCC(=O)NCc1ccccc1)NCc1ccccc1 | 3.7 | 2.2 | 0.2 | 0.4% | 0.0 | -3.6
CC(C)(C)c1ccc(C(=O)N/C(=C\c2cccs2)C(=O)NCc2ccco2)cc1 | -4.9 | 10.9 | -17.1 | -2.3% | 0.7 | -6.5
CC(C)n1c(-c2ccc(C(C)(C)C)cc2)n[nH]c1=S | -3.4 | -5.6 | -3.2 | 14.8%[38.3 µM] | 3.5 | -3.0
Cc1ccc(NC(=O)C(=O)NCCOc2ccccc2Cl)cc1 | 4.7 | 7.6 | 14.1 | 4.2% | 0.8 | 2.5
Clc1ccc(Nc2ncnc3c2cnn3-c2ccccc2)cc1 | 2.2 | 26.2 | -4.8 | 13.1% | 0.5 | -1.5
CC(C(=O)Nc1cccnc1)N1C(=O)c2ccccc2C1=O (centres undefined) | 4.9 | 10.3 | 6.2 | -3.9%[38.3 µM] | 0.2 | 1.3
Cc1cccc(N=Nc2c(C)[nH]n(-c3ccccc3)c2=O)c1 | -6.5 | 29.9 | -26.7 | 0.7% | 0.6 | -1.1
Cc1cccc(-n2nc3c(c2NC(=O)C(C)C)CS(=O)(=O)C3)c1C | 2.5 | . | 3.6 | -0.9% | . | 3.5
Cc1cc(C)cc(C(=O)NCC(=O)OCc2nc(N)nc(Nc3ccccc3C)n2)c1 | . | 0.3 | -3.9 | 1.0% | 1.0 | -3.2
CC(C)C(NS(=O)(=O)c1cccs1)C(=O)NCCN1CCN(c2ccccc2)CC1 (centres undefined) | 0.4 | -3.8 | 5.8 | 0.6% | -0.5 | 7.8
O=C(NC1CCCC1)c1cccc(NC(=O)c2ccco2)c1 | 5.2 | -21.5 | -2.0 | . | 60.2* | 0.3
C#CCOCCOCCOCCNc1nc(N2CCN(C(=O)C([C@@H](C)CC)n3cc(C(N)CO)nn3)CC2)nc(N2CCN(C(=O)[C@H](CCC(=O)O)n3cc(C(N)CC(C)C)nn3)CC2)n1 (some centres undefined) | -12.0 | -1.8 | -13.2 | 0.5% | -0.7 | 0.0
CCOC(=O)C/C(C)=N\Nc1nc(-c2ccccc2)cs1 | -6.9 | 17.0 | -1.2 | -0.9% | 0.7 | -4.7

High-throughput results: PubChem, National Center for Advancing Translational Sciences (NCATS)
